Cruzain inh Det – qHTS Assay for Promiscuous and Specific Inhibitors of Cruzain (with detergent) | purified cruzain, Z-FR-AMC fluorescence, 0.01% Triton | AID 1478, 2009 | Potency, µM, without a hit: max response, negative = inhibition, actives largely listed as inhibitors | hit rate 0.43% among 200,000; active = well fitted curve in the direction sought with a large enough effect; inconclusive = small, poorly fitted or top-dose-only effect, or another doubt; inactive = no such curve, though single readings can be large; an effect the other way counts as inactive or inconclusive;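 note: plate controls were neutral wells for no effect and buffer without enzyme for full effect; nearly all actives have a fitted effect of over 40% in size; top concentration of the series not given in the record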
Target sequence (P25779 123-467 limits assumed): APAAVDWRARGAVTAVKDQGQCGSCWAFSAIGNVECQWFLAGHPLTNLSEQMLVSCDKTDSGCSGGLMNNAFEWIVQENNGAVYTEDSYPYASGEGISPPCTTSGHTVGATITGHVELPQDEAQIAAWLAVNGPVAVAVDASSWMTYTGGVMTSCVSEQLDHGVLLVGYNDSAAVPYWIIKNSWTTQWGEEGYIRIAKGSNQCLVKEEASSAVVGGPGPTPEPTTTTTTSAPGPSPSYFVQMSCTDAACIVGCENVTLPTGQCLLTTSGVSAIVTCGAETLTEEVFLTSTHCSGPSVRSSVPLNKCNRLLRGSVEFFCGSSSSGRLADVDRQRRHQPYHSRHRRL
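Enzyme 1.5 nM, Z-FR-AMC 2 uM, NaOAc 100 mM pH 5.5, DTT 5 mM, Triton X-100 0.01%; 15 min RT compound preincubation; kinetic ex360/em450, 60 s delta.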
LASV entry inh – qHTS for Inhibitors of binding or entry into cells for Lassa Virus | Lassa virus pseudotype entry inhibition, cell reporter; control for the full effect not named in the record | Potency, µM (highest dose often 37.9 µM), without a hit: at the highest dose activity change, negative = inhibition, usual class: inhibitors | hit rate 1.2% among 300,000 | AID 540256, 2011; active means well fitted inhibition curve with a large enough effect; inconclusive means small, poorly fitted or top-dose-only effect, or effect the other way; inactive means flat fitted curve, though single readings scatter; tested in HEK293 cells; note: % is set by controls: 0 for no effect and ±100 for the full control effect; nearly all actives have a fitted effect of over 50% in size; luciferase read-out
NS1 inh – qHTS Assay for Inhibitors of Influenza NS1 Protein Function; AID 2326, 2010; S. cerevisiae slowed by influenza A NS1, growth recovery by OD600; hit rate 0.4% among 270,000; Potency, µM (series often up to 46.1 µM), for the others: at the highest dose activity, positive = more growth; note: actives are rising curves; nearly all actives have a fitted effect of over 50% in size
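Growth recovery, yeast-based: influenza A NS1 expressed in S. cerevisiae causes slow growth, and suppressors are detected by OD600. The parent strain without NS1 is used as positive control.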
SARS PLpro yeast – qHTS of Yeast-based Assay for SARS-CoV PLP | S. cerevisiae expressing SARS-CoV PLpro, growth rescue; control for the full effect not named in the record | Potency, µM (highest dose often 32.9 µM), without a hit: top-dose activity, positive = growth rescue | hit rate 0.19% among 330,000; note: 0% is about no effect; nearly all actives have a fitted effect of over 55% in size; growth read by luminescence after 48 h
MARV entry inh – qHTS for inhibitors of binding or entry into cells for Marburg Virus; Potency, µM (top dose mostly 37.8 µM), for the others: at the top dose activity change, negative = inhibition, hits mostly inhibitors; AID 540276, 2011; hit rate 1.8% among 300,000; Marburg virus pseudotyped entry inhibition, cell reporter; control for the full effect not named in the record; about a third of the inactives were read at about 46 µM; active = well fitted inhibition curve with a large enough effect; inconclusive = small, poorly fitted or top-dose-only effect, or effect the other way; inactive = flat fitted curve, though single readings scatter; tested in HEK293 cells; about a fifth of its hits are not listed in these tables; note: % is set by controls: 0 for no effect and ±100 for the full control effect; luciferase read-out
StopGo reporter – High Throughput Screening for Foot and Mouth Disease Virus Antivirals | hit rate 1.2% among 410,000 | Potency, µM (doses to about 57.9 µM), inactives show at the top dose signal change, negative = less light | AID 1159524, 2015 | human cells with a luciferase reporter of 2A StopGo recoding; control for the full effect not named in the record; active = well fitted falling curve with a large enough effect; inconclusive = small, poorly fitted or top-dose-only effect; inactive = no such curve, though single readings can be large or run the other way; tested in HEK293T cells; note: % is set by controls: 0 for no effect and ±100 for the full control effect; nearly all actives have a fitted effect of over 45% in size; luciferase light after 4 h
RE007 growth inh – qHTS Assay for Inhibitors of the HIV-1 protein Vpr; S. pombe RE007 Vpr strain, BacTiter-Glo ATP luminescence, 24 h; control for the full effect not named in the record; Potency, µM (doses to about 92.2 µM), without a hit: at the highest dose activity change, negative = less growth; hit rate 0.21% among 360,000; AID 651644, 2012; active = well fitted falling curve with a large enough effect; inconclusive = small, poorly fitted or top-dose-only effect; inactive = no such curve, though single readings can be large or run the other way;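 note: % is set by controls: 0 for no effect and ±100 for the full control effect; nearly all actives have a fitted effect of over 50% in size; the assay follows cell death caused by Vpr and the record does not say whether a fall means rescue or toxicity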
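Fission yeast RE007 carrying one integrated HIV-1 vpr copy, seeded at OD 0.01 in PMG+AL medium with 23 nL pinned compound. Grown 24 h at 30 degrees; viability read by BacTiter-Glo luminescence after 5 min.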
Cruzain inh noDet – qHTS Assay for Promiscuous and Specific Inhibitors of Cruzain (without detergent). purified cruzain, Z-FR-AMC fluorescence, no detergent. Potency, µM, inactives show max response, negative = inhibition, usual class: inhibitors. hit rate 2.3% among 200,000; active = well fitted curve in the direction sought with a large enough effect; inconclusive = small, poorly fitted or top-dose-only effect, or another doubt; inactive = no such curve, though single readings can be large; an effect the other way counts as inactive or inconclusive;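 note: plate controls were enzyme without inhibitor for no effect and buffer without enzyme for full effect; nearly all actives have a fitted effect of over 40% in size; top concentration of the series not given in the record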
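Detergent-free condition (0.00005% Triton X-100) in acetate buffer pH 5.5 with DTT. 1.5 nM enzyme and compound were pre-mixed 15 min, then 2 uM Z-FR-AMC substrate added; reaction progress from fluorescence change between first and third reads (60 s).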
The depositor's hits bear a star; ? = inconclusive; / = not tested or not shown; & = joins results of further samples; [ ] = another dose, or the depositor's remark. Unless noted, calls come from the whole dose curve; as a rule, active means well fitted rising curve with a large enough effect; inconclusive means small, poorly fitted or top-dose-only effect; inactive means no such curve, though single readings can be large or run the other way. Potency is the fitted concentration of half-maximal effect.

Compound,RE007 growth inh,Cruzain inh Det,SARS PLpro yeast,Cruzain inh noDet,NS1 inh,StopGo reporter,MARV entry inh,LASV entry inh
CC1CCN(Cc2c(C(=O)N/N=C/c3ccccc3O)nnn2-c2nonc2N)CC1,-8%,/,8%,/,-11%,10%,3.2µM*,?
CN1CCN(Cc2ccc3ccccc3c2)CC1,-14%,/,10%,/,0%,-18%,/,/
CCOC(=O)c1c(NC(=O)COC(=O)CCOc2ccc(OCC)cc2)sc(C(=O)N(C)C)c1C,9%,/,-9%,/,/,-21%,12%[46.1 µM],6%
COc1ccccc1-c1nnc(NC(=O)CSc2nncn2C)s1,-3%,/,1%,/,7%,6%,?,-29%
O=C1CC(c2ccc(O)cc2)Oc2ccccc21 (stereo not drawn),-21%,-4.3%,2%,-2%,/,66%&57%[activator],/,/
O=C(Nc1nnc(S(=O)(=O)N2CCc3ccccc32)s1)c1ccccc1,/,-0.4%,/,6%,/,-8%,/,0%[46.1 µM]
CCCCOC(=O)Nc1ccc(OC)cc1S(=O)(=O)N1CCOCC1,13%,2.1%,?,1%,6%,-7%,7%,-9%
CCOC(=O)C1CCN(C(=O)CCN2C(=O)C3C4C=CC(C4)C3C2=O)CC1 (stereo not drawn),16%,3.4%,-2%,0%,1%,13%,25%,0%
COc1ccc(Nc2nc(-c3ccccc3)nc3ccccc23)c(OC)c1,-3%,/,-3%,/,/,-17%,?,-15%[46.1 µM]
Clc1ccc(C[n+]2cc(-c3ccccc3)n3c2CCCCC3)c(Cl)c1,-22%,/,0%,/,-3%,?,/,/
COc1cc(CN(C(=O)COc2ccccc2)c2ccccn2)cc(OC)c1OC,/,5.2%,/,6%,/,-4%,0%[46.1 µM],0%[46.1 µM]
O=C(COn1nnc2ccc(C(F)(F)F)cc21)Nc1c(Cl)cccc1Cl,-9%,-6.6%,10%,0%,-28%,-25%,-1%,-1%
Cc1ccccc1-n1c(=O)c2ccccc2n2nnnc12,-4%,2.3%,1%,-8%,-7%,-18%,2%,9%
O=C(NCCC1CCCCN1S(=O)(=O)c1ccc(F)cc1)C(=O)NC1CCCC1 (stereo not drawn),-8%,/,-4%,/,/,-7%,0%,7%
CCN1CCN(C(=O)CN(c2cccc(Br)c2)S(=O)(=O)c2ccccc2)CC1,-10%,2.0%,18%,9%,4%,7%,5%,-1%

Looked up by structure from above (two):
Compound,RE007 growth inh,Cruzain inh Det,SARS PLpro yeast,Cruzain inh noDet,NS1 inh,StopGo reporter,MARV entry inh,LASV entry inh
COc1ccc(Nc2nc(-c3ccccc3)nc3ccccc23)c(OC)c1,-3%,/,-3%,/,/,-17%,?,-15%[46.1 µM]
O=C(Nc1nnc(S(=O)(=O)N2CCc3ccccc32)s1)c1ccccc1,/,-0.4%,/,6%,/,-8%,/,0%[46.1 µM]

(more compounds)
Compound,RE007 growth inh,Cruzain inh Det,SARS PLpro yeast,Cruzain inh noDet,NS1 inh,StopGo reporter,MARV entry inh,LASV entry inh
O=C(NCC(=O)N1CCCC(C(F)(F)F)C1)c1cccs1 (stereo not drawn),-13%,/,/,/,/,33%[activator],17%[46.1 µM],9%
CC(=O)c1ccc(Sc2ccccn2)c([N+](=O)[O-])c1,2%,/,1%,/,-6%,-12%,-1%,2%
CSc1nc(=S)n(Cc2ccccc2)c(C)c1C(C)=O,10%,-3.5%,-8%,-5%,7%,-2%,-11%,5%
CCS(=O)(=O)N1CCC(C(=O)NCc2ccccn2)CC1,2%,2.0%,2%,2%,1%,/,6%,2%
O=C1OCC/C1=C\c1ccccc1,-10%,-1.1%,16%,-10%,8%,-27%,-2%,1%
Cc1ccc(OC(=O)c2cccc([N+](=O)[O-])c2)c(-n2nc3ccccc3n2)c1,13%,-7.2%,1%,8%,-1%,4%,-1%,26%
Cc1nnc(N2C(=O)C(=O)/C(=C(/O)c3ccc4c(c3)OCCO4)C2c2ccc(F)cc2)s1 (stereo not drawn),3%,/,13%,/,17%,7%,/,/
CC(C)(C)C1CCC(=NNC(=O)C(=O)NCc2cccnc2)CC1 (stereo not drawn),11%,/,0%,/,/,-16%,11%[46.1 µM],0%[46.1 µM]
C/C=C/C(=O)OCC(=O)Nc1ccc(F)cc1Cl,-10%,7.3%,-4%,9%,-27%,0%,-21%[46.1 µM],-5%
CCOC(=O)c1c(S(=O)(=O)N2CCC(C(=O)Nc3ccc(C)cc3C)CC2)c(C)n(C)c1C,/,2.6%,/,-7%,/,-14%,/,?
O=C(NC1CCCC1)C(c1ccsc1)N(CCc1ccccc1)C(=O)Cc1cccs1 (stereo not drawn),-10%,0.5%,-7%,?,11%,37%[activator],-30%,14%
CCN(CC(=O)Nc1c(F)cccc1F)C(=O)COc1ccc2c(c1)CCC2,-5%,/,0%,/,/,27%,?,?
COC(=O)NC1(C(F)(F)F)C(=O)Nc2c1c(=O)n(C)c(=O)n2C (stereo not drawn),-12%,/,0%,/,-2%,-7%,7%[46.1 µM],6%
CN1C(=O)C(Cc2nc3ccccc3c(=O)n2-c2ccccc2)c2ccccc21 (stereo not drawn),-19%,-2.4%,3%,-3%,10%,-15%,-3%,5%
NS(=O)(=O)c1ccc(NC(=O)COC(=O)c2ccc(Cl)cc2[N+](=O)[O-])cc1,-11%,/,3%,/,0%,0%,/,/

(cont.)
Compound,RE007 growth inh,Cruzain inh Det,SARS PLpro yeast,Cruzain inh noDet,NS1 inh,StopGo reporter,MARV entry inh,LASV entry inh
O=C(CN1CCCCCC1)Nc1cccc(Br)c1,-13%,3.9%,-4%,3%,5%,-7%,?,-1%
COc1ccccc1C(=O)OCc1cc(=O)n2nc(C(C)C)sc2n1,/,-3.8%,/,-5%,/,45%[activator],/,-23%[46.1 µM]
O=C(CCNS(=O)(=O)c1c(Cl)cccc1Cl)OCC(=O)c1ccccc1F,6%,1.1%,3%,-8%,0%,3%,?,8%
CN(C)C(CNC(=O)c1cccc(S(=O)(=O)N(C)C)c1)c1ccccc1 (stereo not drawn),8%,4.1%,3%,-5%,?,3%,15%,?
COc1cc(C=O)ccc1OCCCOc1ccc([N+](=O)[O-])cc1,-2%,-7.5%,0%,-11%,26%,?,7%,?
COc1cc(NC(=O)c2cc(C3CC3)nc3c2c(C)nn3-c2ccccc2)cc(OC)c1,/,-4.4%,/,?,/,-27%,/,-2%[46.1 µM]
O=C(N/N=C/c1ccc(Br)o1)/C(=C/c1ccc([N+](=O)[O-])cc1)NC(=O)c1ccccc1,3%,-5.5%,8%,?,?,/,-27%,?
Cc1oc(-c2ccccc2)[n+]([O-])c1C,-12%,4.0%,0%,-2%,-7%,-1%,29%,-5%
O=C(COC(=O)CCC(=O)c1cccs1)Nc1ccc(Cl)cn1,-4%,3.4%,8%,-2%,7%,8%,37%,4%
Fc1ccc(Nc2ccnc(Nc3ccc(F)cc3)n2)cc1,-20%,-19%,-46%,-4%,-50%,13%,8%,1%
CCC(=O)N1CCN(c2ccccc2NC(=O)Cc2ccc(Cl)cc2)CC1,10%,-0.2%,5%,-5%,-29%,/,?,17%
CC(C)Cc1n[nH]c(=O)c2c1nnn2Cc1ccccc1F,9%,/,4%,/,7%,1%,-3%[46.1 µM],14%[46.1 µM]
O=C(CSc1nncc2ccccc12)Nc1cccc(C(=O)O)c1,6%,/,0%,/,9%,3%,/,/
NCCCC[C@H]1CNC(=S)N1CC1CCCCC1,11%,/,0%,/,-1%,-12%,/,/
Cc1cc(=O)n2nc(N3CCC(C(=O)NCCc4ccc(Cl)cc4)CC3)sc2n1,4%,/,0%,/,7%,-16%,/,/

Continuation:
Compound,RE007 growth inh,Cruzain inh Det,SARS PLpro yeast,Cruzain inh noDet,NS1 inh,StopGo reporter,MARV entry inh,LASV entry inh
Cc1ccc2c(c1)C(c1ccc(F)cc1)N(C(=O)c1ccc(OC(C)C)cc1)CC(=O)N2 (stereo not drawn),/,-8.7%,/,-6%,/,-13%,?,?
C=CCC(=O)N1CCCC(C(=O)c2ccc(Cl)cc2)C1 (stereo not drawn),2%,/,4%,/,17%,-12%,/,/
Cc1ccc(Nc2cc(C)nc3ncnn23)c(Cl)c1,-1%,-0.6%,2%,3%,?,8%,-13%,-19%
CCOC(=O)C1CCN(c2ncnc3c2nnn3C)CC1,/,0.1%,/,?,/,1%,/,-3%[46.1 µM]
COc1cccc(-n2c(=O)c3ccccc3n(CC(=O)NCC3CCCO3)c2=O)c1 (stereo not drawn),39%,/,1%,/,-6%,-3%,4%[46.1 µM],0%
COC(=O)c1cc(C)sc1NC(=O)c1ccco1,5%,/,0%,/,-20%,-12%,/,/
CC(C)c1ccc(C(=O)NC(=S)NCc2cccnc2)cc1,-7%,-5.8%,12%,-4%,-34%,-27%,-19%,-21%
O=C(COc1ccccc1Cl)Nc1ccc(CN2CCOCC2)cc1,8%,/,0%,/,-16%,0%,/,/
COc1cccc(-c2nc3c(c(SCc4ccccc4Cl)n2)Cc2c(CO)cnc(C)c2O3)c1,/,2.3%,/,9%,/,-25%,/,-13%[46.1 µM]
CCOC(=O)c1cnc(SCC(=O)N2CCOCC2)nc1N,-1%,/,1%,/,-4%,46%[activator],78%[46.1 µM],2%
O=C(CCSCc1cnn(-c2ccccc2)c1-n1cccc1)NCc1ccccc1F,/,-5.9%,/,3%,/,-6%,7%[46.1 µM],-4%[46.1 µM]
COc1ccc2c(c1)NC(=O)CC(c1ccccc1)=N2,-8%,-1.1%,-6%,-14%,-11%,33%[activator],10%,8%

Compound activity: PubChem BioAssay, National Center for Advancing Translational Sciences (NCATS)

The order is random; 4.6% or so of the library scored in one or more.
